Bioassay records (PubChem)
Vaccinia mCherry – qHTS for Stage-Specific Inhibitors of Vaccinia Orthopoxvirus: mCherry Reporter Primary qHTS; Vaccinia virus mCherry reporter infection, fluorescence; about a quarter of the inactives have no number; Potency, µM (series often up to 36.5 µM), for inactives: top-dose activity change, negative = inhibition, usual class: inhibitors; hit rate 0.63% among 310,000; AID 720579, 2013; active = well fitted inhibition curve with a large enough effect; inconclusive = small, poorly fitted or top-dose-only effect; inactive = no such curve, though single readings can be large or run the other way; tested in A549 cells; further: nearly all actives have a fitted effect of over 35% in size; inactives centre near -10
VACV Venus inh – qHTS for Stage-Specific Inhibitors of Vaccinia Orthopoxvirus: Venus Reporter Primary qHTS. Vaccinia virus Venus reporter expression, fluorescence. hit rate 0.46% among 330,000. Potency, µM (doses to about 36.5 µM), for the others: at the top dose activity change, negative = inhibition, usual class: inhibitors; active means well fitted inhibition curve with a large enough effect; inconclusive means small, poorly fitted or top-dose-only effect; inactive means no such curve, though single readings can be large or run the other way; tested in A549 cells; further: nearly all actives have a fitted effect of over 30% in size; inactives centre near -10
Numbers without * were called inactive; i = inactive; ? = inconclusive; · = no result given; [ ] = dose if it differs, or a comment. On the % scale 0 is the no-effect control and ±100 the full control effect; potency means the concentration at half of the fitted maximal effect.

SMILES	Vaccinia mCherry	VACV Venus inh
O=C(C(c1ccccc1)N1CCOCC1)N1CCOCC1 (stereo not given)	·	-7.3%
Cc1ccc(Sc2c(C(=O)NCc3ccccc3C)[nH]c3ccccc23)cc1	-13.2%	-14.3%
COc1ccc2c(c1)-c1nc(NC(=O)c3ccco3)sc1CC2	?	?
CCCNC(=O)c1cc(C2CCCN(C(=O)C3CC3)C2)on1 (stereo not given)	4.1%	-0.2%
Cn1c(CN(O)S(=O)(=O)c2ccc(Cl)cc2)nnc1C(F)(F)F	-17.8%	-7.6%
COC(=O)c1ccc(NC(=O)Nc2ccc(F)cc2F)cc1	-10.3%	-7.5%
O=c1[nH]c(=O)n(C2CCCCC2)c(O)c1/C=C/C=Nc1ccccc1	i	36.0%[activator]
C/C(=N/NC(=O)c1cc(O)c(O)c(O)c1)c1ccc([N+](=O)[O-])cc1	-22.0%	-21.6%
O=C(O)C1(Nc2ccc([N+](=O)[O-])cc2[N+](=O)[O-])CCCC1	-11.3%	-4.2%
CCOC(=O)c1sc(-c2ccccn2)nc1C	i	-11.8%
O=C(C1=C[C@H](c2ccc(C(F)(F)F)cc2)C[C@H](OCc2ccc(CO)cc2)O1)N1CCOCC1	-12.9%	-3.6%
O=C(OCC(=O)N1CCOCC1)c1ccccc1SCC(=O)N1CCCC1	·	-14.6%
Cc1ccc(C(C)C)c(OCc2ccc(C(=O)N/N=C/c3ccc(O)cc3O)cc2)c1	1.58µM*	?
O=c1c(Cc2ccc(F)cc2)c(O)ccn1Cc1ccco1	i	0.0%
CC(=O)c1c(N2CCCCC2)nc(=O)n(-c2ccccc2)c1C	·	5.5%
COC(=O)c1cc(NS(=O)(=O)c2ccc(NC(C)=O)cc2)ccc1Cl	i	-12.6%
CN(CC(=O)NCC1CCCCC1)S(=O)(=O)c1ccc(F)cc1	i	-3.0%
COc1ccccc1N1CCN(C(=O)C2CCN(C(=O)c3ccc(C(C)(C)C)cc3)CC2)CC1	?	-24.7%
Cc1cc(=O)n2nc(N3CCC(C(=O)NCc4cccnc4)CC3)sc2n1	i	-2.5%
Nc1nc2ccccc2n1C(=O)c1ccco1	?	-26.3%
CCN(CC)CCNC(=S)N1CCn2c(nc3ccccc32)C1	-9.0%	-9.1%
O=C1CSC(c2ccc(F)cc2)N1c1ccccc1F (stereo not given)	-7.3%	-10.0%
CC(C)C(=O)N[C@H]1CCC2C3CC=C4C[C@@H](O)CC[C@]4(C)C3CC[C@@]21C (stereo not given in full)	i	-9.6%
CCCCn1nnnc1C(c1ccccc1)N1CCN(c2ccc(C(F)(F)F)cc2[N+](=O)[O-])CC1 (stereo not given)	-13.1%	-0.3%
COc1ccccc1/C=C/C(=O)OCC(=O)c1c[nH]c2ccccc12	i	-6.5%
CSc1nsc(SCC(=O)Nc2nc3ccc(C)cc3s2)n1	i	-8.4%
CSc1nnc(-c2cccs2)n1C	-8.7%	-4.2%
O=C(NCCO)c1cn(C2CCN(Cc3c(F)cccc3Cl)CC2)nn1	-4.0%	-4.1%
O=S(=O)(c1ccccc1)N1CCN(C(=S)Nc2ccccc2Cl)CC1	-29.9%	-13.3%
CCCCN(C)CCNC(=O)c1nn(-c2ccc(OC)cc2)c(=O)c2c1c1ccccc1n2C	-11.1%	-5.6%
CCOC(=O)c1cc2c(c(-c3cccc(-c4cc5ccccc5o4)c3)n1)[C@@H](CCO)N(S(=O)C(C)(C)C)C2 (stereo not given in full)	4.6%	-0.5%
Cc1cc(C)n(C(C)CC(=O)NCc2ccc(N(C)C)cc2)n1 (stereo not given)	-16.9%	-15.7%
Cc1cccnc1Nc1ncnc(N)c1[N+](=O)[O-]	-1.9%	-12.7%
O=C(Nc1c(Cl)cc([N+](=O)[O-])cc1Cl)c1cc(Cl)ccc1O	?	?
COc1ccc(CCN2C(=O)CSC2=S)cc1OC	-13.0%	46.1%[activator]
O=C1NC(=O)/C(=C/c2cccc3ccccc23)S1	-20.7%	-17.5%
N#CCCN(C(=O)COC(=O)CCc1c[nH]c2ccccc12)c1ccccc1	-15.7%	-13.5%
Cc1nn(C(=O)Cn2cc([N+](=O)[O-])cn2)c(C)c1Cl	i	-17.5%
CCC(C)n1c(SCC(=O)NCCc2ccc(S(N)(=O)=O)cc2)nc2ccsc2c1=O (stereo not given)	-18.3%	1.0%
O=C(C(=O)N1CCN(C(=O)c2ccco2)CC1)c1ccccc1	-19.7%	-10.9%
COc1ccccc1N1CCN(CCCCN2C(=O)C3CCCCN3C2=O)CC1 (stereo not given)	-16.1%	-6.8%
OCCNc1ncnc2c1c(-c1ccccc1)c(-c1ccccc1)n2Cc1ccco1	0.6%	-1.0%
O=C(CCCOc1ccccc1)N1CCN(S(=O)(=O)c2ccccc2)CC1	i	-13.4%
CN(C)c1ccc(-c2nnc(-c3ccc(S(=O)(=O)C(F)F)cc3)o2)cc1	-16.0%	-19.7%
CCn1cnc2c1c(=O)[nH]c(=O)n2Cc1ccccc1	-7.3%	-0.3%
CCC(CO)Nc1ncnc2c1cnn2-c1ccc(Cl)cc1 (stereo not given)	-10.6%	-14.3%
CC1=C(C)C(C)=C(C#N)C(=C(C#N)C#N)N1	i	-0.7%
COc1cc(/C=N/NC(=O)C(=O)/C=C2\NC(C)(C)Cc3ccccc32)ccc1O	?	-20.5%
CCCCCCOc1ccc(NC(=O)CC2C(=O)N(CC)C(=S)N2Cc2ccco2)cc1 (stereo not given)	?	?
Cc1cccc(N2CCN(C(=O)c3ccc4c(c3)OCCO4)CC2)c1C	-18.2%	-29.2%
COc1ccc(C)cc1N(CC(=O)NCCSCc1ccco1)S(=O)(=O)c1ccc(C)cc1	-20.9%	7.9%
Cc1onc(C(=O)NCCc2ccccc2)c1[N+](=O)[O-]	-20.9%	-16.4%
NC1=NC[C@H](Cc2ccccc2)N1CC1CCCCC1	-5.0%	-6.4%
COc1ccc([C@H]2CC(=O)C=C(c3cccc(C(C)C)c3)C2)cc1	-11.5%	-10.8%
CN(CCCn1ccc(NC(=O)OCc2ccccc2)nc1=O)CCc1ccccn1	-20.1%	-11.1%
O=C(NCc1ccccn1)C(=O)Nc1nc(-c2ccccc2)cs1	-27.3%	-22.8%
CCOC(=O)C1=C(C)OC(N)=C(C#N)C1c1cc2c(cc1[N+](=O)[O-])OCO2 (stereo not given)	-10.7%	-3.4%
Nn1c(SCC(=O)Nc2ccccc2)nnc(Cc2ccccc2)c1=O	-9.0%	-8.6%
Cc1ccsc1CCN1C(=O)N(c2ccc(F)cc2)C(=O)C1CC(=O)Nc1ccccc1 (stereo not given)	-12.2%	-20.8%
CCC(Oc1ccc(Cl)cc1)C(=O)OC1CC2CCC(C1)N2C (stereo not given)	-6.4%	-23.5%

Sorted by count of non-hydrogen atoms (lowest first): part of the list above
SMILES	Vaccinia mCherry	VACV Venus inh
Cc1onc(C(=O)NCCc2ccccc2)c1[N+](=O)[O-]	-20.9%	-16.4%
CCC(Oc1ccc(Cl)cc1)C(=O)OC1CC2CCC(C1)N2C (stereo not given)	-6.4%	-23.5%
COc1ccc([C@H]2CC(=O)C=C(c3cccc(C(C)C)c3)C2)cc1	-11.5%	-10.8%
Cc1cccc(N2CCN(C(=O)c3ccc4c(c3)OCCO4)CC2)c1C	-18.2%	-29.2%
CCOC(=O)C1=C(C)OC(N)=C(C#N)C1c1cc2c(cc1[N+](=O)[O-])OCO2 (stereo not given)	-10.7%	-3.4%
CCCCCCOc1ccc(NC(=O)CC2C(=O)N(CC)C(=S)N2Cc2ccco2)cc1 (stereo not given)	?	?
COc1ccc(C)cc1N(CC(=O)NCCSCc1ccco1)S(=O)(=O)c1ccc(C)cc1	-20.9%	7.9%

Returning to the listing, starting two compounds before the break.
SMILES	Vaccinia mCherry	VACV Venus inh
Cc1ccsc1CCN1C(=O)N(c2ccc(F)cc2)C(=O)C1CC(=O)Nc1ccccc1 (stereo not given)	-12.2%	-20.8%
CCC(Oc1ccc(Cl)cc1)C(=O)OC1CC2CCC(C1)N2C (stereo not given)	-6.4%	-23.5%
O=C(COC(=O)C1CCN(/C=C/C(=O)C(F)(F)F)CC1)Nc1cccc(F)c1	1.6%	-2.7%
CCN1C=C(Cc2ccc(F)cc2)C2=C(C1)C(c1ccc(F)cc1)C(C#N)=C(N)O2 (stereo not given)	·	-25.8%
Cn1c(=O)c2ccccc2n(Cc2ccccc2F)c1=O	-10.3%	-0.9%
CCN(CC(=O)Nc1c(F)cccc1F)C(=O)COc1ccc2c(C)cc(=O)oc2c1	-20.5%	-13.6%
COc1cc(C(CCN2CCCC(C)C2)c2c(OC)cc(OC)c3c(-c4ccccc4)cc(=O)oc23)cc(OC)c1OC (stereo not given)	-14.8%	?
O=C(N/N=C/c1ccc(OCc2ccccc2)cc1)c1ccco1	-3.7%	-6.6%
Cc1cc(C)nc(NC(=O)C(c2ccccc2)c2ccccc2)c1	i	-7.2%
Cc1cc2c(cc1C)N(Cc1ccccc1)C1=NCCCN12	-28.7%	-18.8%
O=[N+]([O-])c1ccc(CSCc2ccc([N+](=O)[O-])cc2)cc1	-19.1%	-9.2%
CC(C)n1c(/C=C/[C@@H](O)C[C@@H](O)CC(=O)O)c(-c2ccc(F)cc2)c2ccccc21	-7.1%	-18.2%
CCOc1ccc2oc(C(=O)Nc3ccc(C)cn3)c(C)c2c1	i	-14.3%
COc1ccc(Cc2nnc(NS(=O)(=O)c3ccc(NC(C)=O)cc3)s2)cc1	-0.5%	-6.7%
CCCCc1ccc(NC(=O)CSc2nc(=O)n(CCN(C)C)c3c2CCC3)cc1	28.2µM*	14.1µM*
O=C(Cc1cccc2ccccc12)Nc1ccccc1	i	-4.9%
CC1(c2ccccc2)NC(=O)N(CCN2C(=O)c3ccccc3C2=O)C1=O (stereo not given)	-14.7%	-5.8%
CN(C)S(=O)(=O)c1cccc(NC(=S)N/N=C/C(=O)c2ccccc2)c1	i	-7.6%
Cc1ccc2cccc(SCC(=O)N3CCOCC3)c2n1	·	-1.7%
O=C(Nc1ccc(N2CCOCC2)c(Cl)c1)c1cc2ccccc2o1	·	?
Cn1cccc1CC(=O)NNC(=S)NC(=O)c1ccccc1Br	i	-9.4%
CCCC(=O)NC(Oc1ccc(Cl)cc1Cl)C(Cl)(Cl)Cl (stereo not given)	-4.8%	-3.9%
CN(C)CCNc1ncnc2c1ncn2[C@H]1CN(Cc2ccco2)C[C@@H](CO)O1	-3.6%	-2.6%
O=C(Cc1ccc([N+](=O)[O-])cc1)NCc1ccncc1	-9.5%	6.3%
CCCCNC(=O)C[C@@H]1C[C@@]2(C(=O)OC)CCCCC=C2N(Cc2ccccc2)C1=O	-4.5%	7.0%
COc1ccc(CN(C(=O)COc2ccc(C)c(C)c2)C2CCS(=O)(=O)C2)cc1OC (stereo not given)	-2.2%	-14.4%
O=C1COc2ccc(C(=O)COC(=O)/C=C/c3ccc(Br)o3)cc2N1	i	-16.9%
Cc1cccc(Nc2nc(OCC#N)nc(N(C)C)n2)c1	-19.8%	-16.7%
CCCc1cc(=O)[nH]c(SCC(=O)Nc2cc(C)on2)n1	-17.1%	-8.7%
COc1ccc(-c2ncccc2OC(=O)C23CC4CC(CC(C4)C2)C3)cc1	-17.8%	-11.6%
CC1=NOC(=O)/C1=C\c1ccc(-c2cc(Cl)ccc2Cl)o1	i	0.0%
CC(=O)c1c(C)oc2ccc(N(C(=O)Oc3ccccc3)S(=O)(=O)c3ccc(Br)cc3)cc12	-7.2%	-11.6%
COC(=O)CSc1nc2c(c(-c3ccco3)c1C#N)CCCC2	-0.5%	-1.3%
COc1ccc(Cl)cc1CNCCSc1nnnn1-c1ccccc1	-9.6%	-14.8%
CC(CCc1ccccc1)NC(=O)C(=O)NCCc1ccccc1 (stereo not given)	-6.3%	-21.3%
Cc1ccc(N2CC(C(=O)Nc3nnc(SCC(N)=O)s3)CC2=O)cc1 (stereo not given)	-11.3%	-7.1%
C=CCn1c(SCC(=O)Nc2ccccc2C)nnc1-c1ccncc1	·	-4.4%
COc1ccccc1N=CC=C1OC(C)(C)C(C)(C)O1	-11.3%	-7.9%
COc1cc(NC(=O)c2cc(-c3ccc(Cl)c(Cl)c3)on2)cc(OC)c1OC	-18.5%	-4.8%
Cc1nnc2c3ccccc3nc(Nc3ccccc3C(=O)O)n12	-11.7%	-12.0%
COc1ccc2[nH]c(C)c(CCNCc3cc(OC)c(OC)c(OC)c3)c2c1	-7.6%	4.7%
Cc1ccc(C(=O)NCCn2c(C)cc3ccccc32)cc1C	-10.6%	-13.4%
COC(=O)Nc1nnc(COc2cccc(C)c2)s1	-14.2%	-0.3%
Cc1cc(N2C(=O)CC(N3CCC(n4c(=O)[nH]c5ccccc54)CC3)C2=O)no1 (stereo not given)	-11.2%	4.9%
CCN1CCN(c2ncc(C(=O)Nc3cc(Cl)c(OC)cc3OC)c3ccccc23)CC1	i	-12.4%
COc1ccc(C2CC(c3ccccc3)=NN2C(=S)Nc2ccccc2)cc1 (stereo not given)	-9.0%	-7.9%
Cc1ccc(S(=O)(=O)N(C)C)cc1NC(=O)COC(=O)CSc1ccccc1	-20.4%	-14.4%
O=C(O)c1ccc(Nc2nc(-c3ccccc3)c3cc(Br)ccc3n2)cc1	-4.2%	-15.7%
CCCCN(C(=S)SC)C1CCS(=O)(=O)C1 (stereo not given)	i	-9.2%
O=C(NCc1ccccc1)C(c1ccncc1)N(C(=O)c1ccccn1)c1ccccc1 (stereo not given)	-24.5%	-5.0%
O=C(NCc1ccc2c(c1)OCO2)c1ccc(CN2CCc3ccccc3C2)cc1	·	-26.8%
Cc1ccc(NC(=O)C2CCCN(S(=O)(=O)c3c(C)n[nH]c3C)C2)cc1C (stereo not given)	i	-14.1%
CCN(C[C@H]1N[C@@](C)(C(=O)OC)[C@H]2C(=O)N(C)C(=O)[C@@H]12)C(=O)C1CCCCC1	-1.6%	-4.4%
